YopH inh: blocks Yersinia enterocolitica YopH tyrosine phosphatase; inhibition, %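 (about 10 µM by stock and volumes)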; hit rate 0.16% among 140,000; AID 898; fluorescence Ex485/Em525;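 active = inhibition of 50% or more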;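 note: controls were vehicle for no effect and minimum signal wells for full effect; inactives centre near -20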
Mtb betalactam: beta-lactam sensitization of Mtb H37Rv; M. tuberculosis H37Rv growth with meropenem, percent inhibition; hits of this screen are not shown here; hit rate 0.27% among 330,000; inhibition, % at 25 µM;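 active = about 74% or more and at least 40 points above the plate without the antibiotic, then above 30% in a dose series; inconclusive = first-round hits that could not be retested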;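 note: growth measured after seven days incubation then overnight dye step; 0% = bacteria only wells and 100% = bacteria with antibiotic; twin plates without the antibiotic show which effects depend on it; some results filed as inactive read as strong as hits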
Mtb growth: M. tuberculosis H37Rv growth inhibitors, H37Rv strain (AID 1626) | M. tuberculosis H37Rv growth inhibition; higher % means a stronger effect | inhibition, % at 10 µM, or IC50 in µM where a hit was titrated | hit rate 0.95% among 220,000;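 active = confirmed in a dose series; inconclusive = inhibition above 80% but not taken into the dose series; inactive = below 80% or under 30% at every dose of the series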;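 note: bacteria incubated seven days before Alamar blue readout; 0% = bacteria only wells and 100% = bacteria with antibiotic wells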
RecA intein inh: Mtb RecA intein splicing inhibition. P9WHJ3. inhibition, %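 (about 9 µM by stock and volumes)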. AID 2221. hit rate 0.75% among 290,000. cell-free RecA intein splicing, fluorescence; in the data active = inhibition above about 30%; inconclusive = no clear call, values can overlap the other calls;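 note: 0% = vehicle wells and 100% = reference inhibitor control wells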
Target sequence (P9WHJ3 whole entry, looked up): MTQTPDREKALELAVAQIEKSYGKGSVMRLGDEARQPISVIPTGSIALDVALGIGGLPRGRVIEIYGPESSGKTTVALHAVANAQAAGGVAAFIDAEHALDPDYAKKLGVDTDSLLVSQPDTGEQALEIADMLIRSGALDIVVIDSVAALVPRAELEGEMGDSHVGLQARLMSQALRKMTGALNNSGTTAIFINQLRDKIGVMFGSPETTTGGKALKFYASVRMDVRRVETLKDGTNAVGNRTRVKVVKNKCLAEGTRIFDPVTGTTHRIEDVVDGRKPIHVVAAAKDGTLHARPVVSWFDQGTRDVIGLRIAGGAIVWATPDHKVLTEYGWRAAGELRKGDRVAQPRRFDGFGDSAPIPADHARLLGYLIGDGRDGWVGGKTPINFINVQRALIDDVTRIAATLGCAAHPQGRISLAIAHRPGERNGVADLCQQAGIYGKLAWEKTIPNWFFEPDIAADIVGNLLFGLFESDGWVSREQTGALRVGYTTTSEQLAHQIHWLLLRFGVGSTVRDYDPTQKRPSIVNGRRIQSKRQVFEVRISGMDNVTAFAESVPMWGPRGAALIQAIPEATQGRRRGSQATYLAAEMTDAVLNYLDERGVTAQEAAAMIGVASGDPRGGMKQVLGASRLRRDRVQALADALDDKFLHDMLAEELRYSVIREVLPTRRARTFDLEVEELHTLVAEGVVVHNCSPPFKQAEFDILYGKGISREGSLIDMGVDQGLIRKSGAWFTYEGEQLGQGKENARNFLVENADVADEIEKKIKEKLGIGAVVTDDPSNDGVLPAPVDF
Arbovirus inh: blocks arbovirus infection. hit rate 0.37% among 200,000. arbovirus infection cell-based antiviral screen. inhibition, % at 10 µM;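 active = inhibition from about 30%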;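 note: bluetongue infection of BSR cells; cell survival read as ATP light after 72 h; 0% = infected wells without compound and 100% = uninfected wells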
Arbovirus inh repeat: further read-out of Arbovirus inh, marked with its call; inhibition, %; measured here: 10K subset replicate screen; many hits read low in the repeat;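 first of two repeat runs on a subset; 0% = infected and 100% = uninfected wells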
Starred values were filed as active, the others as inactive; & = joins results of further samples. These rows are one share of the data; count on the stated rates, not on these rows.

`COc1ccc(CCNC(=O)c2ccc3c(c2)S(=O)(=O)N=C2CCCCCN23)cc1` gave Mtb betalactam -3.7 and RecA intein inh 0.7.
For Cc1ccc(Cn2ccc(NC(=O)c3cc(-c4ccccc4)on3)n2)cc1 the results were YopH inh 8.1, Mtb betalactam 4.9, Mtb growth -6.2% and Arbovirus inh -10.7.
`CN1/C(=C/C(=S)NC(=O)C2(C)CC2(Cl)Cl)C(C)(C)c2ccccc21` (configuration not stated) gave Mtb betalactam 5.2, Mtb growth -6.2%, RecA intein inh -5.5 and Arbovirus inh 20.4.
`COc1ccc(-n2ncc(C(C)NS(=O)(=O)c3ccc(C(C)=O)cc3)c2C)cc1` (configuration not stated) gave Mtb betalactam -12.3 and RecA intein inh 2.9.
`Cc1ccc2[nH]c(=O)c(CN(CCN3CCOCC3)C(=O)Nc3ccc(F)cc3)cc2c1` gave YopH inh -51.8, Mtb betalactam 24.8, Mtb growth -3.7%, RecA intein inh 1.5 and Arbovirus inh -3.9.
CCOC(=O)c1c(-c2ccccc2)csc1NC(=O)/C(C#N)=C/c1ccc(O)c(OC)c1 was read as YopH inh 0.7, Mtb betalactam 0.8, Mtb growth 1.6%, RecA intein inh -3.4 and Arbovirus inh -39.7.
For COc1ccc(CCNC(=O)c2cnc3n(c2=O)CCS3)cc1OC the results were YopH inh -23.3, Mtb betalactam -7.8, Mtb growth -1.3%, RecA intein inh 0.0 and Arbovirus inh 0.3.
`Cc1nn(-c2ccccc2)c(Cl)c1C(=O)Nc1ccc(N2CCOCC2)cc1` gave Mtb betalactam 1.3, Mtb growth 7.2%, RecA intein inh 0.6 and Arbovirus inh -1.2.
For COc1cc(OC)cc(C(=O)N[C@H](C(=O)NCc2cccs2)C(C)C)c1 the results were Mtb betalactam -11.6, Mtb growth 85.2%, RecA intein inh 2.5 and Arbovirus inh -7.0.
Screening COc1ccccc1CNC(=O)CCNS(=O)(=O)c1cc(Br)cnc1N returned Mtb betalactam -0.5 and RecA intein inh -1.2.
`CCC(C)N(C)C(=O)c1cc2ccccc2c(-c2ccccc2Cl)n1` (configuration not stated) gave Mtb betalactam 1.6, Mtb growth 5.7%, RecA intein inh 3.9 and Arbovirus inh -13.7.
`CC(/C=C/c1ccccc1)=N/O` gave YopH inh -37.3, Mtb betalactam 58.6, Mtb growth 5.6%, RecA intein inh 0.3, Arbovirus inh 8.0 and Arbovirus inh repeat 0.9.
For Cc1ccc(S(=O)(=O)N(C)c2ccc(OCC(=O)Nc3cccc(-n4cnnn4)c3C)cc2)cc1 the results were Mtb betalactam -0.5, Mtb growth 2.9% and RecA intein inh 4.9.
Screening Cn1c(=O)[nH]c(=O)c2c1nc(SCC(=O)O)n2Cc1ccccc1 returned Mtb betalactam -12.1 and RecA intein inh -2.7.
Screening O=C(Nc1cc(Cl)ccc1Oc1ccccc1)c1ccc(F)cc1 returned YopH inh -29.0, Mtb betalactam 7.1, Mtb growth 12.1%, RecA intein inh 5.4 and Arbovirus inh 1.8.
Screening COCCc1ccc(OCC(O)CNC(C)C)cc1 (configuration not stated) returned YopH inh -25.4, Mtb betalactam -4.6&-5.3&-4.3, Mtb growth -9.8%, RecA intein inh -1.9 and Arbovirus inh -3.6.
For COc1ccc(N2CCN(C(=O)CSc3nnc4ncccn34)CC2)cc1 the results were YopH inh -19.6, Mtb betalactam -8.3, Mtb growth -6.9%, RecA intein inh -7.8 and Arbovirus inh 1.6.
`NC(=O)CSc1nnc(Cn2c(=O)sc3ccccc32)n1-c1cccc(Cl)c1` gave YopH inh -37.8, Mtb betalactam -6.7, Mtb growth 4.7%, RecA intein inh 1.7 and Arbovirus inh 4.3.
For CC(C)Oc1snc(Cl)c1C(N)=O the results were YopH inh -4.0, Mtb betalactam -16.8, RecA intein inh -0.7 and Arbovirus inh 3.5.
`COC(=O)C(Cc1ccccc1)NC(=O)c1cc(=O)[nH]c2ccccc12` (configuration not stated) gave Mtb betalactam -0.2, Mtb growth -7.3%, RecA intein inh 1.7 and Arbovirus inh -0.9.

Compounds shown so far that have a thiophene ring, fused or not (two):
CCOC(=O)c1c(-c2ccccc2)csc1NC(=O)/C(C#N)=C/c1ccc(O)c(OC)c1 was read as YopH inh 0.7, Mtb betalactam 0.8, Mtb growth 1.6%, RecA intein inh -3.4 and Arbovirus inh -39.7.
For COc1cc(OC)cc(C(=O)N[C@H](C(=O)NCc2cccs2)C(C)C)c1 the results were Mtb betalactam -11.6, Mtb growth 85.2%, RecA intein inh 2.5 and Arbovirus inh -7.0.

More compounds
For CCCCOc1ccc(C(=O)Nc2cc(C)c(OCC(=O)N3CCOCC3)c(C)c2)cc1 the results were YopH inh 31.4, Mtb betalactam -1.5, Mtb growth -1.4%, RecA intein inh 4.1 and Arbovirus inh -26.3.
Screening COc1ccc(-c2nn(CC(=O)NCCc3ccccc3)c(=S)n2C)cc1 returned YopH inh -21.5, Mtb betalactam -4.3, Mtb growth -0.8%, RecA intein inh -1.3 and Arbovirus inh -3.3.
`O=C(Nc1ccc2c(c1)OCCO2)C1CCN(C(=O)c2ccccc2)CC1` gave YopH inh 13.8, Mtb betalactam -11.3, Mtb growth -8.6%, RecA intein inh -0.2 and Arbovirus inh 0.5.
`CCCNC(=O)NC(=O)COc1ccc(-c2ccc(C#N)cc2)cc1` gave Mtb betalactam 99.3, Mtb growth 0.754µM*, RecA intein inh 2.9 and Arbovirus inh 20.2.
O=c1c2cnn(-c3ccccc3)c2ncn1Cc1ccccc1F was read as YopH inh -19.9, Mtb betalactam -2.7, Mtb growth -4.2%, RecA intein inh 0.2, Arbovirus inh -1.1 and Arbovirus inh repeat 3.1.
`COc1ccc(S(=O)(=O)NC(CC(=O)NC2CCCC2)c2ccco2)cc1` (configuration not stated) gave YopH inh -54.6, Mtb betalactam -10.4, Mtb growth 6.5%, RecA intein inh 1.9 and Arbovirus inh 4.9.
For Cc1nn(-c2ccccc2)c(Cl)c1/C=N/NC(=O)c1[nH]ncc1Br the results were Mtb betalactam 7.3 and RecA intein inh 3.6.
C=CCn1c(Cc2c[nH]c3ccccc23)n[nH]c1=S was read as YopH inh -15.1, Mtb betalactam -5.5, Mtb growth -3.8%, RecA intein inh 1.1 and Arbovirus inh -1.5.
Screening CCCCNC(=O)C(Cc1ccccc1)NS(=O)(=O)c1ccc2c(c1)c(=O)n(C)c(=O)n2C (configuration not stated) returned YopH inh -39.7, Mtb betalactam -4.6, Mtb growth -5.3% and Arbovirus inh -0.6.
O=C(Nc1ccccn1)Nc1ccccc1Cl was read as Mtb betalactam 0.9 and RecA intein inh 1.8.
Cc1nc(Cl)c(C(=O)NCc2ccccc2)c(C)c1[N+](=O)[O-] was read as Mtb betalactam 1.3 and RecA intein inh -1.5.
Cc1ccc(S(=O)(=O)N2CCC(=O)N(C(COCc3cccc(Cl)c3)Cc3ccccc3)CC2)cc1 (configuration not stated) was read as YopH inh -20.8, Mtb betalactam -6.4, Mtb growth -6.1%, RecA intein inh 15.4 and Arbovirus inh -1.9.
O=C(NC1CCCCC1)C(c1cccnc1)N(C(=O)CCl)c1cccc(Cl)c1 (configuration not stated) was read as YopH inh -13.2, Mtb betalactam 27.4, Mtb growth 7.5%, RecA intein inh 78.8* and Arbovirus inh -25.8.
Screening COc1cccc(C2c3c(oc4ccccc4c3=O)C(=O)N2c2ccccn2)c1 (configuration not stated) returned YopH inh -43.2, Mtb betalactam inconclusive, Mtb growth -5.5%, RecA intein inh 0.4, Arbovirus inh 0.3 and Arbovirus inh repeat -1.9.
Cc1ccc(CSc2n[nH]c(N)n2)cc1 was read as Mtb betalactam 3.6, Mtb growth -7.0%, RecA intein inh -1.0 and Arbovirus inh -0.7.
Screening Cc1cc[n+](-c2[nH]c(=O)sc2/C=N/N=C(\[O-])CCn2c3ccccc3c3ccccc32)cc1 returned Mtb betalactam 3.1, Mtb growth -3.9% and RecA intein inh 1.8.
For Cc1sc(NC(=O)CN2C(=O)NC3(CCCC3)C2=O)nc1-c1ccc(F)cc1 the results were Mtb betalactam -0.7 and RecA intein inh -0.6.
`CCOC(=O)CSc1nc(C)c(Oc2ccc(Cl)cc2Cl)c(=O)[nH]1` gave Mtb betalactam 6.4 and RecA intein inh 1.8.
CCOc1cccc(-c2nnc3sc(COc4ccccc4)nn23)c1 was read as YopH inh -15.3, Mtb betalactam 8.6, Mtb growth -6.1%, RecA intein inh 2.0 and Arbovirus inh -4.2.
For Cc1ccc(S(=O)(=O)N(C)c2ccc(OCC(=O)NCc3ccco3)cc2)cc1 the results were YopH inh -8.0, Mtb betalactam -18.5, Mtb growth -5.0%, RecA intein inh 1.0 and Arbovirus inh -0.6.
`COc1ccc(NC(=O)c2cccc(OC(=S)N3CCOCC3)c2)cc1` gave Mtb betalactam 3.8, Mtb growth -1.1% and RecA intein inh 5.4.
Screening CC(C)(C)c1ccc(C(=O)NCCn2c(N)c(C#N)c3nc4ccccc4nc32)cc1 returned YopH inh 2.0, Mtb betalactam -6.3, Mtb growth 2.1% and Arbovirus inh -5.4.
For Cc1ccc(N2CCN(C(=O)CCc3nc4ccccc4[nH]3)CC2)c(C)c1 the results were YopH inh 6.0, Mtb betalactam 3.8, Mtb growth 10.7%, RecA intein inh 2.9 and Arbovirus inh 11.8.
Screening Cc1ccc(NC(=O)CN2C(=O)N/C(=C/c3cc(C)n(-c4cccc(C(=O)O)c4)c3C)C2=O)cc1 returned Mtb growth -6.2% and Arbovirus inh 18.3.
For Cc1ccc(C2C(C#N)=C(N)N(c3cccnc3)C3=C2C(=O)CCC3)c(C)c1 (configuration not stated) the results were Mtb betalactam -8.1, Mtb growth -8.1%, RecA intein inh -2.5 and Arbovirus inh 4.4.
For FCCCOc1ccc(/C=N/OCc2c(Cl)cccc2Cl)cc1 the results were YopH inh -25.1, Mtb betalactam -5.9, Mtb growth 3.0%, RecA intein inh -5.1 and Arbovirus inh -0.5.
For CC(C)(C)OC(=O)n1cc(C(=O)c2ccccc2O)cn1 the results were Mtb betalactam 3.0 and RecA intein inh 2.2.
For O=Cc1c(N2CCN(c3ccccc3)CC2)nc2ccccn2c1=O the results were Mtb betalactam -2.2, Mtb growth -2.2%, RecA intein inh -0.2 and Arbovirus inh 1.2.
Cn1c(NC2CCCCC2)c(N=O)c(=O)n(C)c1=O was read as Mtb betalactam -0.1, Mtb growth 0.8% and Arbovirus inh 1.9.
Screening Cc1cccnc1NC(=O)c1cccc(S(=O)(=O)NCc2ccccc2)c1 returned Mtb betalactam -14.5 and RecA intein inh 0.3.
Cn1c2ccccc2c(=O)c2cc(C#Cc3ccccn3)ccc21 was read as Mtb betalactam 2.2 and RecA intein inh -31.9.
Cc1c(Cl)cccc1NC(=S)NCC1COc2ccccc2O1 (configuration not stated) was read as Mtb betalactam 2.0, Mtb growth 0.2%, RecA intein inh 11.1 and Arbovirus inh 11.9.
For Cc1ccc(NC(=O)C2C(=O)N(C)c3ccccc32)cc1 (configuration not stated) the results were YopH inh -36.1, Mtb betalactam -2.7, Mtb growth 2.8%, RecA intein inh -0.8 and Arbovirus inh 1.4.
Screening CCCCc1cc2c(cc1NC(=O)CN1CCCCC1)OCCO2 returned Mtb betalactam 3.4, Mtb growth -1.9% and RecA intein inh 0.9.
For Cn1cnnc1SCc1ccccc1Br the results were YopH inh -20.6, Mtb betalactam 0.4, Mtb growth -9.7%, RecA intein inh -3.9 and Arbovirus inh 5.8.
For O=C(COc1ccccc1)NC(=S)Nc1ccc2c(c1)Cc1ccccc1-2 the results were YopH inh -2.0, Mtb betalactam 97.4, Mtb growth 48.8%, RecA intein inh 1.3 and Arbovirus inh -11.5.
Screening COC(=O)c1c(NC(=O)c2ccco2)sc2c1CCC2 returned YopH inh -20.4, Mtb betalactam 39.4, Mtb growth 5.1%, RecA intein inh -3.3 and Arbovirus inh -18.8.
COCCNC(=O)C(c1ccco1)N(Cc1ccc(OC)cc1)C(=O)Cn1nnc2ccccc21 (configuration not stated) was read as YopH inh -35.0, Mtb betalactam -4.8, RecA intein inh -3.5 and Arbovirus inh 5.6.
Screening O=[N+]([O-])c1ccc(C(O)C23CN4CN(CN(C4)C2)C3)cc1 (configuration not stated) returned Mtb betalactam -1.8, Mtb growth -7.7%, RecA intein inh 0.2 and Arbovirus inh -2.7.
`C#CCOCCOCCOCCNc1nc(N2CCN(C(=O)CCCCCCCCCCNC(=O)[C@H](CCCCN)n3cc(C[C@@H](C)CC)nn3)CC2)nc(N2CCN(C(=O)CCCCCCCCCCNC(=O)[C@H](CCCCN)n3cc(C[C@@H](C)CC)nn3)CC2)n1` gave Mtb betalactam 64.6 and RecA intein inh 65.5*.
CCOC(=O)CSc1nc2c(c(=O)n(C)c(=O)n2C)n1Cc1ccccc1F was read as YopH inh -44.0, Mtb betalactam inconclusive, Mtb growth -9.9%, RecA intein inh -0.2, Arbovirus inh -3.0 and Arbovirus inh repeat -2.2.
`CCC(=O)c1ccc(OCC(=O)OCC(=O)c2cc(C)n(CC3CCCO3)c2C)cc1` (configuration not stated) gave Mtb betalactam 8.2 and RecA intein inh -2.9.

Compound activity as filed in PubChem.
